Ecoli rRNA inh – inhibits bacterial ribosomal RNA function over humanized ribosomes; E. coli WT GFP vs humanized-ribosome RFP mutants, fluorescence, 24 h; stronger effect = lower value; DMSO median 0, no signal -100; GFP signal change (wild-type ribosome), % (test concentration not listed); hit rate 1.6% among 350,000;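 active = significant combined selectivity score with lowered wild-type GFP, culture density cut under 30%, mutant RFP and density less affected; inactive = any of these conditions unmet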; also: one replicate is shown; some compounds called inactive have numbers as strong as hits
Ecoli rRNA inh OD600 – further read-out of Ecoli rRNA inh, marked with its call; OD600 change, %; measured here: OD600 growth;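 optical density of the mix in the first replicate; 0 = DMSO median and -100 = no signal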
Ecoli rRNA inh RFP – recorded beside Ecoli rRNA inh, whose call it bears; RFP signal change, %; measured here: RFP humanized mutant strains;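 first replicate; 0 = DMSO median and -100 = no signal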
* marks the source's active call; other numbers are inactive results; & = joins results of further samples. An excerpt, so the mix of outcomes need not match the whole.

SMILES | Ecoli rRNA inh | Ecoli rRNA inh OD600 | Ecoli rRNA inh RFP
COc1ccc(NC(=O)Nc2ccc3c(c2)[C@@H]2C[C@H](CC(=O)N4CCN(C)CC4)O[C@@H](CO)[C@@H]2O3)cc1 | 1.6 | 7.4 | -1.1
CC(=O)C1=CCC(c2ccccc2)N(S(=O)(=O)c2ccccc2C)C1 (stereo unspecified) | -4.6&-2.7 | -29.7&-27.5 | -10.0&-6.7
COc1ccccc1CNC(=O)C[C@H]1C[C@H]2c3cc(NC(=O)NC4CCCC4)ccc3O[C@H]2[C@@H](CO)O1 | -3.2 | -4.1 | -2.5
O=C(O)[C@@H]1C[C@@H](O)CN1 | 4.7 | 6.1 | -4.0
Cc1cccc(S(=O)(=O)N2CCCCN3[C@@H](CO)[C@H](c4ccc(C#CC(C)C)cc4)[C@@H]3C2)c1 | -42.1* | -31.7* | -0.5*
CNC[C@H]1Oc2ccc(NC(=O)CCN3CCOCC3)cc2CC(=O)N([C@H](C)CO)C[C@H]1C | 0.7 | 3.9 | -1.8
COc1ccc(NC(=O)Cn2nnc(-c3ccccc3)c2COc2ccc(C(C)=O)cc2)cn1 | 5.3 | -1.0 | -0.1
COc1ccc(NC(=O)N(C)C[C@H]2Oc3ccc(NC(=O)c4ccncc4)cc3C(=O)N([C@H](C)CO)C[C@H]2C)cc1 | 3.6 | 7.4 | -2.2
C[C@@H]1CN([C@@H](C)CO)C(=O)c2cc(NS(=O)(=O)c3cn(C)cn3)ccc2O[C@@H](C)CCCCO[C@H]1CN(C)CC1CCCCC1 | 2.7 | -1.1 | -3.4
C/C=C/c1ccc2c(c1)[C@H]1[C@H](CCN1C(=O)C1CC1)[C@@H](CO)N2 | 1.3 | 7.4 | -2.9
O=C(c1ccccc1F)N1C[C@H]2[C@@H](c3ccccc31)[C@@H](CO)N2C(=O)C1CCCC1 | 0.9 | -5.2 | -0.9
CC(=O)N(C)C[C@H]1Oc2ncc(C#CC3(O)CCCC3)cc2C(=O)N([C@@H](C)CO)C[C@H]1C | 6.6 | 15.4 | -3.3
COc1ccc(S(=O)(=O)N(C)C[C@@H]2Oc3ccc(NC(=O)C4CCCCC4)cc3C(=O)N([C@@H](C)CO)C[C@@H]2C)cc1 | -4.0 | -5.9 | 0.6
CNC(=O)C[C@H]1CC[C@@H]2[C@@H](COc3ccc(NS(=O)(=O)c4ccc(F)cc4)cc3C(=O)N2C)O1 | 0.2 | -0.3 | 0.4
CNC(=O)C[C@H]1CC[C@H]2[C@H](COc3ccc(NC(=O)Nc4ccccc4OC)cc3C(=O)N2C)O1 | 2.1 | 0.9 | 0.5
NCC[C@@H]1CC[C@@H](NC(=O)C2CCCC2)[C@@H](CO)O1 | 2.7 | -1.9 | -2.6
C[C@H](CO)N1C[C@H](C)[C@H](CN(C)C(=O)Nc2ccc(F)cc2)OCCCC[C@H](C)Oc2ccc(NS(=O)(=O)c3cccs3)cc2C1=O | -2.7 | 5.3 | -1.0
CCC(=O)N[C@@H]1CC[C@@H](CC(=O)NCc2ccccc2OC)O[C@@H]1CO | -0.5 | -1.6 | -1.6
C[C@H]1CN([C@@H](C)CO)C(=O)c2cc(-c3ccc(C#N)cc3)cnc2O[C@@H]1CN(C)C(=O)c1cccnc1 | -4.2 | -22.1 | 5.3
CCC(=O)N[C@@H]1CC[C@@H](CCn2cc(CN(C)C)nn2)O[C@H]1CO | -1.5 | 6.4 | -1.2
CNC[C@H]1Oc2c(NC(=O)NC(C)C)cccc2C(=O)N([C@H](C)CO)C[C@H]1C | 6.7 | 13.5 | 0.9
COC(=O)[C@]12C[C@H](CC(=O)N3CCSCC3)C(=O)N(Cc3ccccc3)C1=C[C@H](C1CCCC1)O[C@@H]2C | 1.2 | -11.2 | 1.1
COc1cccc(S(=O)(=O)N2C[C@@H](O)COC[C@@H]3O[C@@H](CC(=O)N4CCN(C)CC4)CC[C@H]32)c1 | -8.3 | -8.6 | -4.5
CC(C)CCN1C(=O)CSCC1(C)C(=O)NCc1ccccc1 (stereo unspecified) | -21.4 | -34.4 | -10.6
O=C(C[C@H]1C[C@H]2c3cc(NC(=O)NC4CCCCC4)ccc3O[C@H]2[C@@H](CO)O1)NC1CCCCC1 | 2.4 | 8.6 | -0.2
C[C@H](O)C#Cc1ccc2c(c1)O[C@@H](CN(C)Cc1ccccc1)[C@@H](C)CN([C@H](C)CO)S2(=O)=O | -3.8 | 8.9 | -1.1
CCCNC(=O)N(C)C[C@@H]1Oc2cc(-c3ccc(C)cc3)ccc2S(=O)(=O)N([C@H](C)CO)C[C@@H]1C | -4.2 | -1.8 | 1.2
Cc1ccc(S(=O)(=O)Nc2ccc3c(c2)C(=O)N([C@H](C)CO)C[C@@H](C)[C@@H](CN(C)CC2CCCCC2)OCCCC[C@@H](C)O3)cc1 | -5.8 | -42.5 | 36.0
C[C@H]1CN([C@@H](C)CO)C(=O)c2cccc(NC(=O)c3ccc(-c4nccs4)cc3)c2O[C@@H]1CN(C)S(=O)(=O)c1cn(C)cn1 | 1.0 | 11.3 | -0.7
O=C(C1CCCC1)N1CC(=O)N2[C@H](CO)[C@@H](c3ccc(C#CCc4ccccc4)cc3)[C@@H]2C1 | -8.0 | -30.7 | 4.5

Entries of single compounds, looked up by structure. Values in the order: Ecoli rRNA inh, Ecoli rRNA inh OD600, Ecoli rRNA inh RFP
CCC(=O)N[C@@H]1CC[C@@H](CCn2cc(CN(C)C)nn2)O[C@H]1CO in the list: -1.5, 6.4, -1.2
C[C@H]1CN([C@@H](C)CO)C(=O)c2cccc(NC(=O)c3ccc(-c4nccs4)cc3)c2O[C@@H]1CN(C)S(=O)(=O)c1cn(C)cn1 in the list: 1.0, 11.3, -0.7
NCC[C@@H]1CC[C@@H](NC(=O)C2CCCC2)[C@@H](CO)O1 in the list: 2.7, -1.9, -2.6
O=C(C[C@H]1C[C@H]2c3cc(NC(=O)NC4CCCCC4)ccc3O[C@H]2[C@@H](CO)O1)NC1CCCCC1 in the list: 2.4, 8.6, -0.2
C[C@H](O)C#Cc1ccc2c(c1)O[C@@H](CN(C)Cc1ccccc1)[C@@H](C)CN([C@H](C)CO)S2(=O)=O in the list: -3.8, 8.9, -1.1

Later entries.
SMILES | Ecoli rRNA inh | Ecoli rRNA inh OD600 | Ecoli rRNA inh RFP
CC(C)NC(=O)N(C)C[C@@H]1OCCCC[C@@H](C)Oc2ccc(NC(=O)NC3CCCCC3)cc2C(=O)N([C@H](C)CO)C[C@@H]1C | 0.0 | -1.5 | -0.9
O=C(C[C@H]1CC[C@H]2[C@@H](COC[C@H](O)CN2C(=O)Nc2cc(Cl)cc(Cl)c2)O1)N1CCCCC1 | -54.3 | -72.7 | 3.0
CCOC(=O)C1(C)CCCCCN1C(=O)c1ccco1 (stereo unspecified) | 8.7 | -4.5 | 0.1
C[C@@H]1CN([C@H](C)CO)C(=O)c2cc(C#Cc3ccccn3)cnc2O[C@@H]1CN(C)Cc1cncnc1 | 6.1 | 0.4 | 5.0
CNC[C@@H]1Oc2ccc(N(C)C)cc2C(=O)N([C@@H](C)CO)C[C@H]1C | 1.0 | 9.2 | -0.4
OC[C@@H]1[C@H](c2ccc(-c3ccccc3F)cc2)[C@@H]2CN(Cc3cncnc3)CCCCN12 | 0.6 | 14.6 | 0.0
CC(=O)NC[C@H]1[C@@H](c2ccc(-c3ccccc3)cc2)[C@H](CO)N1C(=O)C1CCC1 | -3.2 | -0.5 | -0.8
Cc1ccc(S(=O)(=O)N[C@@H]2CC[C@@H](CCn3cc(-c4ccccc4F)nn3)O[C@H]2CO)cc1 | 0.0 | -17.6 | 1.0
C[C@@H]1CCCCO[C@@H](CN(C)CC2CC2)[C@H](C)CN([C@H](C)CO)C(=O)c2cc(NC(=O)Nc3ccc(F)cc3)ccc2O1 | 0.0 | -2.0 | -0.1
O=C(N[C@@H]1CC[C@H](CCn2cc(Cc3ccccc3)nn2)O[C@H]1CO)c1cnccn1 | -1.3 | -3.2 | -1.1
OC[C@H]1[C@H](c2ccc(C#Cc3ccccc3)cc2)[C@@H]2CN(Cc3cncnc3)CCCCN12 | -14.9 | -4.4 | -1.0
C[C@@H]1CN([C@@H](C)CO)C(=O)CCCn2nncc2CO[C@H]1CN(C)C | 4.1&-2.7 | 2.7&-4.6 | 7.9&-2.0
C/C=C/c1cnc2c(c1)C(=O)N([C@H](C)CO)C[C@H](C)[C@@H](CN(C)C(=O)Nc1ccc(F)cc1)O2 | 4.3 | 5.2 | -2.2
COc1ccc(C#Cc2cccc(-c3nc(C(=O)O)cc4c3[C@@H](CCO)N(S(=O)C(C)(C)C)C4)c2)cc1OC (stereo partly specified) | -1.5 | -1.3 | 0.8
CCOC(=O)C1=CCN(S(=O)(=O)c2ccccc2C)C1c1ccc(C)cc1 (stereo unspecified) | -10.2 | -25.6 | -6.6
C[C@@H]1CN([C@H](C)CO)C(=O)c2cccc(NC(=O)Nc3ccc4c(c3)OCO4)c2O[C@H]1CN(C)S(=O)(=O)c1ccccc1 | -2.9 | -5.7 | -1.4
CCCNC(=O)N1[C@H](CO)[C@H](c2ccc(-c3ccccc3)cc2)[C@@H]1CNC(C)=O | -7.3 | -4.7 | -1.9
CC(=O)N1[C@@H]2c3ccc(C4=CCCC4)c(=O)n3C[C@H]1[C@H](CO)[C@H]2C(=O)NCC1CC1 | 0.6 | 3.3 | -0.6
Cc1noc(C)c1NC(=O)N[C@H]1C=C[C@@H](CC(=O)Nc2ccccc2)O[C@H]1CO | 2.7 | 1.7 | 0.0
COc1cccc(NC(=O)N(C)C[C@H]2Oc3cc(C#CC4(O)CCCC4)ccc3S(=O)(=O)N([C@H](C)CO)C[C@H]2C)c1 | -6.6 | -9.0 | 0.7
COc1ccc(CNC(=O)CC[C@H]2O[C@@H](n3ccc(=O)[nH]c3=O)[C@H](O)[C@@H]2O)cc1 | 1.2 | 3.3 | -2.5
C[C@H](CO)N1C[C@H](C)[C@H](CN(C)C(=O)Nc2ccc(F)cc2)Oc2c(NS(=O)(=O)c3cn(C)cn3)cccc2C1=O | -1.2 | 2.0 | -2.4
COCC(=O)Nc1ccc2c(c1)OC[C@@H](C)N(Cc1ccncc1)C[C@@H](C)[C@@H](OC)CN(C)C2=O | -2.0 | -5.0 | -0.6
C[C@H]1CN(C)C(=O)c2cccc(NS(C)(=O)=O)c2O[C@H]1CN(C)S(C)(=O)=O | -0.2 | 0.6 | 0.7
C[C@H](CO)N1C[C@H](C)[C@H](CN(C)C(=O)NC2CCCCC2)Oc2ncc(-c3cccc(F)c3)cc2C1=O | -3.3 | -17.2 | -1.1
O=C(C1CCOCC1)N1CC2(C1)[C@H](c1ccccc1)[C@H](CO)N2Cc1ccccc1F | -0.1 | 6.4 | -0.4
COc1ccc(CNC(=O)C2CCC(=O)N(C3CCCCCC3)C2)c(OC)c1 (stereo unspecified) | 3.5 | 0.4 | 1.9
C[C@H]1CN([C@@H](C)CO)C(=O)c2ccccc2-c2ccccc2CO[C@H]1CN(C)C(=O)Nc1ccccc1 | -1.0 | -0.8 | -3.6
C[C@H]1CN([C@@H](C)CO)C(=O)Cc2cc(NC(=O)Nc3ccccc3)ccc2O[C@@H]1CN(C)C(=O)NC1CCCCC1 | 0.1 | -0.2 | -1.9
COCC(=O)N1[C@@H]2c3ccc(C4=CCCCC4)c(=O)n3C[C@@H]2[C@@H](CO)[C@@H]1C(=O)N1CCOCC1 | 3.1 | 9.6 | 0.2
O=C(c1cccnc1)N1CC[C@H]2[C@H](CO)Nc3ccc(-c4ccccc4)cc3[C@H]21 | -5.4 | 11.6 | -2.7
COCC#Cc1ccc([C@@H]2[C@H](CO)N3C(=O)CN(C(=O)Nc4ccc(F)cc4)C[C@@H]23)cc1 | -0.8 | 4.1 | 0.4
COc1ccc(NC(=O)N(C)C[C@@H]2OCCCC[C@@H](C)Oc3ccc(NC(=O)Cc4ccccc4)cc3C(=O)N([C@H](C)CO)C[C@H]2C)cc1 | -3.2 | -11.1 | -0.4
C[C@@H]1CN([C@@H](C)CO)C(=O)c2cc(NC(=O)C3CCCCC3)ccc2O[C@@H]1CN(C)C(=O)Nc1ccccc1 | -2.0 | -3.7 | 1.4
Cc1ccc(S(=O)(=O)N(C)C[C@@H]2OCCCC[C@H](C)Oc3ccc(N(C)C)cc3C(=O)N([C@H](C)CO)C[C@H]2C)cc1 | -0.2 | 8.5 | 1.3
CO[C@H]1CC[C@@H]2CCN(C)C(=O)[C@@H](C)CN(C)C(=O)c3cc(C#N)ccc3OC[C@H]1O2 | 9.0 | 13.5 | -1.8
O=C(Nc1nnc([C@H]2C[C@H](O)[C@@H](CO)O2)s1)c1cccc(C(F)(F)F)c1 | 5.8 | 11.8 | 6.9
Cc1noc(C)c1NC(=O)Nc1ccc2c(c1)C(=O)N([C@H](C)CO)C[C@@H](C)[C@@H](CN(C)CC1CCCCC1)OCCCC[C@@H](C)O2 | -0.2 | 3.2 | -1.7
N#Cc1ccccc1NC(=O)C1CCCO1 (stereo unspecified) | 4.3 | 10.2 | -5.7
N#Cc1ccc(C(=O)N2CCCCC2c2cc(C(=O)NCc3ccccc3)no2)cc1 (stereo unspecified) | -4.6 | -4.4 | -6.8
O=S(=O)(c1ccccc1)N1CCCCN2[C@@H](CO)[C@H](c3ccc(C#Cc4cccnc4)cc3)[C@@H]2C1 | -5.5 | -9.5 | 15.1
Cc1c(C(=O)NCc2ccc3c(c2)OCCO3)sc(=O)n1Cc1cccc(C(F)(F)F)c1 | -7.6 | -7.0 | -5.7
C[C@H]1CN([C@@H](C)CO)C(=O)CCCn2cc(nn2)CO[C@H]1CN(C)C(=O)c1ccc2ccn(C)c2c1 | -0.5 | 3.8 | -1.0
C[C@@H]1CN([C@H](C)CO)C(=O)c2cc(NS(C)(=O)=O)ccc2O[C@@H]1CN(C)C(=O)Nc1cccc2ccccc12 | 2.6 | 7.2 | -1.8

Compound activity deposited in PubChem BioAssay by Broad Institute.
